Assay outcomes deposited in PubChem by Center for Chemical Genomics, University of Michigan.
CDC25B-CDK2 inh = human CDC25B-CDK2/CyclinA binding inhibition | 94,000 tested, 0.72% active | z-score (concentration not given with the values) | AID 1259370 | HTRF CDC25B-CDK2/CyclinA binding, anti-His/anti-Flag; stronger effect = higher value;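 note: score is relative to mean and SD of negative controls; strong numbers were not always called active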
TAR Tat displ = HIV-1 TAR-Tat binding disruption. 100,000 tested, 0.6% active. z-score (no concentration beside the values). AID 1259389. HIV-1 TAR RNA, Tat peptide displacement FRET; stronger effect = higher value;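 note: score is relative to mean and SD of negative controls; some compounds called inactive have numbers as strong as hits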
Numbers without * were called inactive; x = not tested or not shown.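 Rule for the calls: active = z-score from 3 up in half or more of its runs; inactive = the rest.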

molecule	CDC25B-CDK2 inh	TAR Tat displ
CC1CCC(NS(=O)(=O)c2ccc3c(c2)NC(=O)CC(C)S3)CC1 (stereo not drawn)	x	0.79
Cc1nn(CC(=O)Nc2sc3c(c2C#N)CCCCC3)c(C)c1[N+](=O)[O-]	-2.2	x
O=C(Nc1ccc(F)cc1)c1cc(CN2CCCC2)on1	x	-0.12
CCOC(=O)C1=C(C)NC2=C(C(=O)CC(C)(C)C2)C1c1cc2c(cc1Br)OCO2 (stereo not drawn)	-2.3	0.67
CC[C@H](C)NC(=O)c1ccc(C)c(NC2=NC3CS(=O)(=O)CC3S2)c1 (stereo partly drawn)	-2.6	-1.6
CCN(CC)CCNC(=O)c1nn(C)c2c1CS(=O)(=O)c1ccccc1-2	-1	0.11
O=C(CN1C(=O)CSc2ccc(C(=O)N3CCCCC3)cc21)N1CCN(c2ncccn2)CC1	x	1.8
Cn1c(N2CCOCC2)nc2c1c(=O)n(Cc1ccc(F)cc1)c(=O)n2C	-0.49	0.89
CCOC(=O)C(NC(=S)SC)C(=O)OCC	-1.1	x
Cc1nn(S(=O)(=O)c2ccc(Cl)cc2)c(C)c1Sc1ncccn1	-0.21	x
CN1C(=O)c2ccccc2C(C(=O)NCCN(Cc2ccco2)C2CCCC2)C1c1cccs1 (stereo not drawn)	x	0.18
CC1(C)NC(=O)N(CC(O)CN2CCN(CC(O)CN3C(=O)NC(C)(C)C3=O)CC2)C1=O (stereo not drawn)	-2.7	x
O=c1c(O)c(NCc2ccc(F)cc2)c1=O	x	-0.76
O=S(=O)(Nc1ccc(F)cc1F)c1ccc(N2CCCCS2(=O)=O)cc1	x	1.2
Cc1cccn2c(=O)c3cc(C#N)c(=O)n(Cc4ccc5c(c4)OCO5)c3nc12	-2.2	1.4
C=CCn1c(O)c(C(c2ccncc2)c2c(O)n(CC=C)c(=S)[nH]c2=O)c(=O)[nH]c1=S	0.47	x
COc1ccc(C)cc1NS(=O)(=O)c1cc(-c2onc(C)c2C)ccc1OC	x	1.1
Nc1nc(-c2ccccc2Cl)nn1C(=O)c1ccc(Cl)cc1	-0.6	0.13
Cc1cc2c(cc1S(=O)(=O)N(C)CC(=O)N1c3ccccc3CC1C)OCC(=O)N2 (stereo not drawn)	x	0.82
NNC(=O)C1CCCNC1=O (stereo not drawn)	-0.77	x
CCOC(=O)N1CCN(c2cc(NC(C)C)c3c4c(onc24)-c2ccccc2C3=O)CC1	-2.6	-0.2
CCN(CC)C(=O)C(C)N(C#N)c1nc(N(C)C)nc(N(C)C)n1 (stereo not drawn)	7.8	1.9
Cc1ccc(-c2nonc2NC(=O)C(C)C)cc1C	-0.29	1.2
CCOC(=O)N1CCN(C(=O)c2ccc(CS(=O)c3ccccc3)o2)CC1 (stereo not drawn)	x	0.64
Cc1nc(-c2ccc(C)c(S(=O)(=O)N3CCC(C)CC3)c2)cs1	x	1
Cc1ccc(S(=O)(=O)[C@H]2CS(=O)(=O)C[C@@H]2N(C)CCc2ccncc2)cc1	-2.1	-0.2
Cc1cc(C)c(-c2ccn[nH]2)[nH]1	-0.09	x
CCOC(=O)c1c(NC(=O)c2nn(-c3ccccc3)ccc2=O)sc2c1CCC2	1.6	2.4
Cc1cc(C)cc(S(=O)(=O)c2cn(C)c3cc(N4CCN(C)CC4)c(F)cc3c2=O)c1	x	3.6
O=C(Nc1ccc(F)cc1)C(=S)NC1CCCCC1	-1.8	x

Arranged by length of the SMILES (smallest number first): part of the list above
molecule	CDC25B-CDK2 inh	TAR Tat displ
Cc1cc(C)c(-c2ccn[nH]2)[nH]1	-0.09	x
Cc1ccc(-c2nonc2NC(=O)C(C)C)cc1C	-0.29	1.2
CCN(CC)C(=O)C(C)N(C#N)c1nc(N(C)C)nc(N(C)C)n1 (stereo not drawn)	7.8	1.9
CCOC(=O)N1CCN(C(=O)c2ccc(CS(=O)c3ccccc3)o2)CC1 (stereo not drawn)	x	0.64
Cc1ccc(S(=O)(=O)[C@H]2CS(=O)(=O)C[C@@H]2N(C)CCc2ccncc2)cc1	-2.1	-0.2

Carrying on.
molecule	CDC25B-CDK2 inh	TAR Tat displ
C=CCN1C=C(OC(=O)c2ccc(Cl)cc2)c2ccccc2S1(=O)=O	0.36	-0.21
COCCCN1CC23C=CC(O2)C(C(=O)OC)C3C1=O (stereo not drawn)	2.4	1.5
Cc1ccc(C(C)C)c(OCCCn2c(CO)nc3ccccc32)c1	-1.5	0.33
CC(C)NC(=O)C1c2ccccc2C(=O)N(C)C1c1cn(C)c2ccccc12 (stereo not drawn)	-2.3	x
CCN(CC)CCCNc1ncnc2c1cnn2C	x	1.5
CC(C)CNS(=O)(=O)c1ccc2c(c1)C(C)(C)C(=O)N2C	x	1.4
CCC(=O)Nc1ccc(Cl)c(-c2nc3ncccc3o2)c1	-1.9	x
C=CCN1C(=O)C(=O)/C(=C(/O)c2ccc(C)cc2)C1c1cccc(F)c1 (stereo not drawn)	-0.41	0.38
CCOC(=O)c1c(NC(=O)COc2ccc3c(C)cc(=O)oc3c2)sc2c1CCCCC2	-0.39	x
N#Cc1ccc(-c2ccccn2)[nH]c1=O	-0.34	x
Cc1cccnc1-n1c(C)c(C)c2c1ncn1nc(-c3cccnc3)nc21	-2.6	1.2
CCOC(=O)C1=C(CC)NC2=C(C(=O)CCC2)C1c1ccc(OC)c(Br)c1 (stereo not drawn)	-1.6	2
O=[N+]([O-])c1ccc(OCC(O)CN2CCOCC2)cc1 (stereo not drawn)	-2.7	x
Cc1ccc(C2C3C(=O)N(c4ccc(F)cc4)C(=O)C3N3CCCN23)cc1 (stereo not drawn)	-0.24	x
O=S(=O)(Oc1ccc(C2SCCS2)cc1)c1ccc(Br)cc1	-0.8	x
CCc1ccc(-c2cc(C)no2)cc1S(=O)(=O)Nc1cc(C)ccc1C	x	-0.93
Cc1ccc(CSc2nc3c(c(=O)[nH]2)CCCC3)cc1	-1.9	2.4
COc1ccc(S(=O)(=O)NCC(c2ccc(N(C)C)cc2)N2CCCC2)cc1F (stereo not drawn)	x	-0.64
O=C(CCc1nnc2ccc(NCc3ccco3)nn12)Nc1nccs1	x	2.4
COc1cccc(-c2cn3c(n2)sc2cc(Cl)ccc23)c1	0.09	1.5
Cc1ccc(Cl)cc1NS(=O)(=O)c1cn(C)c(C)n1	x	2.7
COC(=O)c1sc(NC(=O)c2cc(-c3cccs3)on2)nc1C	-1.7	1.7
COc1cc(C2C3=C(CC(C)(C)CC3=O)Nc3ncnn32)ccc1OC(C)C (stereo not drawn)	-0.5	1.8
CCc1ccc(N2C(=O)Nc3ccccc3C2(O)C(=O)NCc2ccc3c(c2)OCO3)cc1 (stereo not drawn)	0.63	x
Cc1cccc(N2C(=O)Nc3ccccc3S2(=O)=O)c1C	x	1.6
CSc1ncc(Cl)c(C(=O)N(Cc2cccc(Cl)c2)C2CCS(=O)(=O)C2)n1 (stereo not drawn)	-2.5	0.41
Cc1cc2c(cc1S(=O)(=O)NC1CCCC1)OCCN2C	x	1.3
C=CCSc1nc2c(c(=O)[nH]1)C(c1ccc(OCC)c(OC)c1)CC(=O)N2 (stereo not drawn)	-4	1.1
O=S(=O)(c1cccc(S(=O)(=O)N2CCN(c3cnccn3)CC2)c1)N1CCOCC1	-1.9	-0.47
Cc1cc(=O)[nH]c(Nc2nc3ccccc3s2)n1	0.34	x

Reformatted: 4 of the compounds above
Cc1cccc(N2C(=O)Nc3ccccc3S2(=O)=O)c1C
  CDC25B-CDK2 inh: x	TAR Tat displ: 1.6
CSc1ncc(Cl)c(C(=O)N(Cc2cccc(Cl)c2)C2CCS(=O)(=O)C2)n1 (stereo not drawn)
  CDC25B-CDK2 inh: -2.5	TAR Tat displ: 0.41
Cc1cc2c(cc1S(=O)(=O)NC1CCCC1)OCCN2C
  CDC25B-CDK2 inh: x	TAR Tat displ: 1.3
C=CCSc1nc2c(c(=O)[nH]1)C(c1ccc(OCC)c(OC)c1)CC(=O)N2 (stereo not drawn)
  CDC25B-CDK2 inh: -4	TAR Tat displ: 1.1

More records follow.
molecule	CDC25B-CDK2 inh	TAR Tat displ
CCCC1N=C2c3ccccc3N=C(SCC(=O)Nc3ccc(Cl)cc3)N2C1=O (stereo not drawn)	x	1.1
Cn1cc(NC(=O)NCCCN(Cc2ccco2)C2CCCC2)c2ccccc2c1=O	2.6	0.63
CCC(O)c1nc2ccccc2n1CCCOc1ccc(C)cc1C (stereo not drawn)	0.08	0.55
CCN1c2ccccc2-c2nc3ccccc3n2C1c1cccnc1 (stereo not drawn)	-0.01	x
Cc1nc(N2CCCCC2)c2c(C)c(C(=O)N3CCC4(CC3)OCCO4)sc2n1	-2.5	x
CCOC(=O)C1C2C=CC3(CN(c4ccccc4CC)C(=O)C13)O2 (stereo not drawn)	0.48	-0.15
COCCCNc1oc(-c2ccc(S(=O)(=O)N3CCc4ccccc4C3)cc2)nc1C#N	-0.96	-1.5
Cc1ccc2cc3c(nc2c1)N(S(=O)(=O)c1ccc2c(c1)OCCO2)CC3	-0.1	-0.2
Cc1ccccc1C(=O)CC1(O)C(=O)Nc2ccc(F)cc21 (stereo not drawn)	x	1.2
Cc1ccc(CNc2ncnc3onc(-c4ccc(Cl)cc4)c23)cc1	0.09	0.77
CCN1CCN(C(=O)CN(C)S(=O)(=O)c2ccc3c(c2)c(=O)n(C)c(=O)n3C)CC1	-0.89	-0.33
O=C(C1Sc2nnc(-c3ccccc3)n2NC1c1ccccc1)N1CCCCC1 (stereo not drawn)	-0.64	0.18
c1ccc(Cn2nnc3c(Sc4nnc(-c5ccncc5)o4)ncnc32)cc1	-2.6	x
COc1ccc(-c2n[nH]c3c2C(c2cccc(O)c2)N(C)C3=O)cc1 (stereo not drawn)	-0.82	-0.6
CCS(=O)(=O)NCCc1cc2ccc(C)c(C)c2[nH]c1=O	-0.82	x
CCN1CCN(c2c(S(=O)(=O)c3ccccc3)cnc3ccc(F)cc23)CC1	-1.4	-0.1
Fc1ccc(-c2nnn3c2nc(N2CCOCC2)c2ccccc23)cc1	-1.3	-1.4
Cc1ccccc1Sc1ccccc1C(=O)O	-0.83	x
CCOc1ccc(-n2c(N)c(C(=O)Nc3ccc(F)cc3)sc2=S)cc1	x	0.96
COCCNC(=O)c1cnc2sc(N3CCCC3)nn2c1=O	x	0
CC(=O)N1c2ccc(S(=O)(=O)N3CCOCC3)cc2CC1C(=O)NCc1ccco1 (stereo not drawn)	x	2
O=C(O)c1cc2ccccc2c(=O)n1CCc1ccccc1	x	2.5
CCOC(=O)Cn1c(=O)oc2cc(S(=O)(=O)NC3CCCc4ccccc43)ccc21 (stereo not drawn)	-0.28	1.2
CCc1ccc(C2CC(=O)Nc3n[nH]c(-c4ccc(Cl)cc4)c32)cc1 (stereo not drawn)	1.8	0.92
CCN(CC)CCCNc1ncnc2onc(-c3cc(F)cc(F)c3)c12	x	-0.76
CN(C)CCCN(C(=O)c1ccco1)c1nc2c(F)cc(F)cc2s1	x	1.1
CCOC(=O)N1CCN(C(=O)CCCOc2cc(=O)n(C)c3ccccc23)CC1	-1.7	0.34
O=S(=O)(NC1CCCCC1Nc1ccccc1Br)c1ccccc1 (stereo not drawn)	-2.7	1.2
Cn1c(SCC(=O)Nc2cccc(Cl)c2)nnc1-c1ccc(OCC(F)(F)F)nc1	-0.44	x
Cc1ccc(NS(=O)(=O)c2cc(-c3ccc(=O)[nH]n3)ccc2C)c(Cl)c1	0.74	0.61
O=C(COCc1cc(-c2cccs2)on1)NCCC1=CCCCC1	x	0.47
O=S(=O)(NCC1CCN(Cc2cccc(F)c2)CC1)c1cnc[nH]1	x	1.7
O=S(=O)(NCCc1csc(-c2ccc(F)cc2)n1)c1ccc(Cl)cc1	x	-0.17
CCC1CCCCN1Cc1ccc(CNc2cc(C)nc3nc(-c4ccco4)nn23)o1 (stereo not drawn)	x	2.5
O=C(CSc1nccc(C(F)(F)F)n1)c1ccc(Br)cc1	0.27	x
CCCCCCOc1ccc(N2C(=O)CC(N3CCSCC3)C2=O)cc1 (stereo not drawn)	-1.9	-0.51
O=C1CSCC(=O)N1c1ccccn1	-1.3	x
CCCc1nccn1S(=O)(=O)c1cc(Br)ccc1OC	0.96	0.02
O=C(Nc1ccccc1Cl)NC1(C(F)(F)F)Oc2ccccc2O1	0.69	x
CCCCNC(=O)c1oc2ccc(S(=O)(=O)N3CCCC3)cc2c1C	-0.03	x
COc1cc(C2C3=C(CC(C)(C)CC3=O)Nc3[nH]c(=O)[nH]c(=O)c32)cc(OC)c1OC (stereo not drawn)	-1.3	x
COCc1cc(=O)[nH]c(/N=C(\N)Nc2ccc(Oc3ccc(Cl)cc3)cc2)n1	0.27	x
CC(C)CC1N=C2c3ccccc3N=C(SCC(=O)N3CCN(c4ccc(F)cc4)CC3)N2C1=O (stereo not drawn)	x	0.17
Cc1ccc(-n2ncc3c(NCCC4=CCCCC4)ncnc32)cc1	x	1.4

The order is random (roughly 0.87% active in at least one column).
